ClpP mod – qHTS Assay for Activators of ClpP; ATP-dependent Clp protease proteolytic subunit (Bacillus subtilis (strain 168)), P80244; purified B. subtilis ClpP, FRET peptide cleavage, 20 min; Potency, µM (series often up to 57.5 µM), inactives show at the highest dose activity change, negative = active; 1.9% of 340,000 active; AID 651965, 2013; active = well fitted falling curve with a large enough effect; inconclusive = small, poorly fitted or top-dose-only effect; inactive = no such curve, though single readings can be large or run the other way; further: potency means the concentration at half of the fitted maximal effect; the source files actives as falling curves though it sought activators and does not explain the sign; nearly all actives have a fitted effect of over 65% in size; many hits overshoot -100%
Target sequence (P80244 whole entry, looked up): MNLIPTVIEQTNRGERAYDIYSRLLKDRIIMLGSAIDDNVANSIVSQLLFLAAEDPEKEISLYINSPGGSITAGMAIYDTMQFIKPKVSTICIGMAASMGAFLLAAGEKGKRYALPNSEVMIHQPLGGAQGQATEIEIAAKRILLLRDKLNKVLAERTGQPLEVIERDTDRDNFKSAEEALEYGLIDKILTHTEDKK
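FRET quenching reversal measured ClpP activation: 10 microg/mL B. subtilis ClpP at pH 8 with the FRET-FV decapeptide, read at 430 nm after 320 nm excitation. The 20-min minus 0-min signal was scaled between DMSO/no-enzyme wells and ADEP (5.8 microM final).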
gsp antag – antagonists of gsp mutant (McCune-Albright syndrome). gsp-mutant cells, cAMP HTRF, 30 min; control for the full effect not named in the record. Potency, µM (highest dose often 76.9 µM), for inactives: top-dose activity change, negative = inhibition, usual class: inhibitors. 0.4% of 340,000 active. AID 624288; active = falling curve of any shape with a large fitted effect; inconclusive = falling curve, mostly with a smaller effect; inactive = flat or rising curve; cell line not stated here;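 further: intracellular cAMP measured with PDE inhibitor Ro 20-1724 present during compound exposure; potency means the concentration at half of the fitted maximal effect; on the % scale 0 is the no-effect control and ±100 the full control effect; nearly all actives have a fitted effect of over 65% in size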
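Cells in G418 medium, seeded 16-24 h, 37C; buffer exchange to DPBS + 1 mM CaCl2, 0.5 mM MgCl2, 0.05% BSA; cpds in DMSO + […] (300 uM stock), 30 min 37C; HTRF cAMP detection.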
gsp ag – agonists of gsp mutant (McCune-Albright syndrome); gsp mutant cells, cAMP HTRF, 30 min; control for the full effect not named in the record; Potency, µM (highest dose often 76.9 µM), inactives show at the top dose activation (cAMP increase), hits mostly activators; 0.13% of 340,000 active; active = well fitted activation curve with a large enough effect; inconclusive = small, poorly fitted or top-dose-only effect, or another doubt; inactive = no such curve, though single readings can be large or run the other way; cell line not stated here;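 further: phosphodiesterase inhibitor Ro 20-1724 added with compounds to block cAMP breakdown; potency means the concentration at half of the fitted maximal effect; nearly all actives have a fitted effect of over 60% in size; about a fifth of the inactives were tested at one dose only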
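Cells in DMEM/10% FBS with G418 were pretreated with compounds in DMSO plus […] (300 uM stock) for 30 min at 37C. cAMP was measured by HTRF (cAMP-d2 plus anti-cAMP antibody-K) after 30 min at room temperature.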
TRPV1 PAM – human TRPV1 potentiation; Q8NER1; TRPV1-expressing cells, Fluo-8 calcium influx, capsaicin EC20 potentiation; host cell line not named in the record; control for the full effect not named in the record; potentiation, % at 8.33 µM; 0.02% of 320,000 active; active means potentiation above 80%; inconclusive means 30% to 80%; inactive means below 30%; further: 0% is about no effect
Target sequence (Q8NER1 whole entry, looked up): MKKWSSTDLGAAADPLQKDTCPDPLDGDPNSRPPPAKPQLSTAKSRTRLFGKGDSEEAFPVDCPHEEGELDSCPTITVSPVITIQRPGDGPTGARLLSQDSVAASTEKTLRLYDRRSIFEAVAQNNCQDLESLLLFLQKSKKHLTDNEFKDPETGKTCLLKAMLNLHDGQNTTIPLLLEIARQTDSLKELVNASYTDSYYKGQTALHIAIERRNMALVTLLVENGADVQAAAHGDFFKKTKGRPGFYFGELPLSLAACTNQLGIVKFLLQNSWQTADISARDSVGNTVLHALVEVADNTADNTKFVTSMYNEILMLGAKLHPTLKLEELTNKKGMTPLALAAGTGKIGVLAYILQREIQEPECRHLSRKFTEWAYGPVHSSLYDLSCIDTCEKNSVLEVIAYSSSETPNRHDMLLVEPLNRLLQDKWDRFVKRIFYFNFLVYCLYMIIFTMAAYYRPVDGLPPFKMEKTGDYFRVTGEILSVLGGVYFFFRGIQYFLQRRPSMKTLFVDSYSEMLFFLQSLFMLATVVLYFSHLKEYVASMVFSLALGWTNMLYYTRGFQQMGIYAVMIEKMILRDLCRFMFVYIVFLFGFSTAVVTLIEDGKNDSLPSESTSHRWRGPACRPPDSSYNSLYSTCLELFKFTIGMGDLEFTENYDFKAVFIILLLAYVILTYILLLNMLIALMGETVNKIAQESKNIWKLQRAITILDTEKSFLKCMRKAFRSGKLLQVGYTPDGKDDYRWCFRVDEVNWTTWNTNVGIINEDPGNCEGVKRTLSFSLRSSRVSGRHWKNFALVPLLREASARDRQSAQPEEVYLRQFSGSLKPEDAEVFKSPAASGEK
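Fluo-8 calcium influx in TRPV1-expressing cells, kinetic read (ex 480/em 520 nm). Compound added and read 3 min for agonist activity, followed by capsaicin at EC20 final and 2 min further read for enhancement.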
CtBP-E1A inh – CtBP/E1A binding inhibition; AlphaScreen GST-E1A/His-CtBP binding, 1536-well; stronger effect = lower value; control for the full effect not named in the record; 0.49% of 340,000 active; activity change, % (no concentration beside the values); AID 651724; in the data active means activity change below about -65%; inconclusive means about -30% to -65%; inactive means above about -30%; further: on the % scale 0 is the no-effect control and ±100 the full control effect; compound concentration not given in the record
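GST-E1A and His-tagged CtBP (125 nM each as 5X stock) were preincubated with pin-transferred compound for 2 h at 37 °C in the dark, then glutathione donor and nickel acceptor beads were added for 1 h before AlphaScreen reading.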
Menin MLL FP FL – inhibitors of human menin-MLL interaction, wild-type MLL peptide; Fluorescence polarization, fluorescein-MLL peptide displacement from menin; FP activity change, % at 61.4 µM; 290,000 tested, under 10 active; inconclusive = falling polarisation curve, or a change in total fluorescence; inactive = total fluorescence flat and polarisation flat or rising; no compound was filed as active; the % refers to the polarisation; negative = inhibition;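 further: % of control where 0% means no effect; inhibitors lower the polarisation; unlabelled MLL peptide was the positive control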
Sfp PPTase inh – Sfp phosphopantetheinyl transferase inhibition; Q9F4F7; Biochemical Sfp PPTase activity, qHTS; Potency, µM, for inactives: max response, negative = inhibition, most hits filed as inhibitors; 3.5% of 310,000 active; active means well fitted inhibition curve with a large enough effect; inconclusive means small, poorly fitted or top-dose-only effect, or another doubt; inactive means no such curve, though single readings can be large or run the other way;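 further: the enzyme is Sfp with the accession as filed and its product quenches rhodamine fluorescence; potency means the concentration at half of the fitted maximal effect; 0% = enzyme reaction without inhibitor and -100% = no enzyme wells; top concentration of the series not given in the record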
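Sfp 15 nM + cpd, 15 min RT; start w/ rhodamine-CoA 5 uM, BHQ-2-YbbR 12.5 uM (final); 50 mM Hepes pH 7.6, 10 mM MgCl2, 0.01% NP-40, 0.01% BSA; read 525/598 nm at 0 and 30 min.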
An asterisk follows results filed as active; ? = inconclusive; · = no result given; [ ] = remark or other dose.

no.	SMILES	ClpP mod	gsp antag	gsp ag	TRPV1 PAM	CtBP-E1A inh	Menin MLL FP FL	Sfp PPTase inh
1	O=C(NCc1ccccc1)c1cccc2c1C(=O)c1ccc(/C=C/c3ccccc3)cc1S2(=O)=O	-25%	10%	-42%[inhibitor]	·	-17	·	·
2	COc1c2ccoc2cc2oc(C)cc(=O)c12	-8.0%	2%	·	·	3	-9.9	-8%
3	Brc1ccc(-c2csc(N3CCC(c4ccccc4)C3)n2)cc1 (stereo not given)	-4.3%	-9%	13%	13	6	0.3	9%
4	CCN(CC)S(=O)(=O)c1cccc(NC(=O)CN2C(=O)NC3(CCOc4ccccc43)C2=O)c1 (stereo not given)	?	-7%	-3%[15.4 µM]	-1	5	·	·
5	CN(CCc1ccccn1)C(=O)CCc1nnc(CCCc2ccccc2)o1	1.3%	-2%	?	24	-2	0.3	26%
6	CC(Oc1ccccc1)C(=O)Nc1nc(-c2ccncc2)cs1 (stereo not given)	-0.3%	8%	-10%	-2	-6	·	·
7	NC1=NC2(CCN(Cc3ccccc3)CC2)n2c(nc3ccccc32)N1	0.2%	3%	8%	-14	-11	3.3	-15%
8	Cc1ccc(C(=O)NC(C)c2ccc(-n3ccnc3)cc2)c(C)c1 (stereo not given)	-0.5%	20%	-25%	-1	4	·	5%
9	CCOCCCNC(=O)c1cc(Sc2ccc(F)cc2)nc2ccccc12	0.4%	4%	?	-22	0	1.7	6%
10	C[C@H](CO)N1C[C@H](C)[C@@H](CN(C)S(C)(=O)=O)Oc2ccc(NS(=O)(=O)c3ccccc3)cc2C1=O	0.5%	0%	·	·	5	·	·
11	CCCC(=O)N(CCN1CCOCC1)c1nc2c(F)cc(F)cc2s1	-3.1%	-5%	-20%	4	-10	·	2%
12	CCOc1ccccc1CNC(=O)c1cc2oc3ccccc3c2n1C	20µM*	-1%	15%	9	-13	2.3	-2%

The list goes on.
no.	SMILES	ClpP mod	gsp antag	gsp ag	TRPV1 PAM	CtBP-E1A inh	Menin MLL FP FL	Sfp PPTase inh
13	Cc1c(C(=O)N2CCN(c3ncccn3)CC2)oc2c(Cl)cccc12	3.2µM*	4%	2%[15.4 µM]	-5	-4	·	·
14	O=C(NCc1ccc(Cl)cc1)C(=O)NCC(c1cccnc1)N1CCN(c2ccc(F)cc2)CC1 (stereo not given)	·	-10%	2%[15.4 µM]	20	6	1.8	8%
15	CC(=O)c1cccc(NC(=O)COc2cc(C)on2)c1	-1.3%	2%	-44%[inhibitor]	14	·	·	·
16	O=C(CC(=O)N/N=C/c1c(Cl)cccc1Cl)NCc1cccnc1	104%	7%	-3%[15.4 µM]	4	-1	·	8%
17	Cc1cc(C)cc(NC(=O)COC(=O)[C@@H](NC(=O)c2ccco2)C(C)C)c1	·	-6%	6%[15.4 µM]	-24	0	2.9	8%
18	CCOC(=O)C1=C(O)CSC1=Nc1ccccc1	1.5%	-4%	-1%	-20	-1	8.6	4%
19	Cc1c(C#N)c(=O)oc2ccc3ccccc3c12	7.9µM*	17%	?	·	-12	?	3%
20	COC(=O)c1c(C(=O)OC)c2cccc3cc(-c4ccccc4)c4ccc1c4n32	-0.5%	6%	-39%[inhibitor]	1	?	?	-6%
21	Cc1cccc(C)c1NC(=O)CCCSc1nnc(-c2ccc(F)cc2)n1-c1ccccc1	-2.7%	-15%	-1%	2	-5	-0.8	5%
22	CCCn1c(SCc2ccccc2)nc2c1c(=O)[nH]c(=O)n2C	-0.8%	11%	-5%	-4	-1	17	-6%
23	CC(=O)Nc1ccc(C(=O)CSc2nnnn2C)cc1	·	4%	13%[15.4 µM]	4	14	2.2	-3%
24	COc1ccc(/C=C2\SC(=S)N(CCC(=O)NC3C=CS(=O)(=O)C3)C2=O)cc1 (stereo not given)	0.6%	-23%	-4%	9	1	3.0	6%

The list continues:
no.	SMILES	ClpP mod	gsp antag	gsp ag	TRPV1 PAM	CtBP-E1A inh	Menin MLL FP FL	Sfp PPTase inh
25	COC(=O)C1=C(C(=O)OC)[C@]2([C@H]3CC=CCN[C@@H](Cc4ccccc4)C(=O)N3Cc3ccccc3)C=C[C@H]1O2	1.2%	-17%	3%	·	·	·	·
26	Nn1c(Cc2ccccc2F)nnc1SCC(=O)N1CC(=O)Nc2ccccc21	-1.6%	9%	-2%	2	5	1.5	4%
27	C=CCn1c(SCC(=O)N2CCOCC2)nc(O)cc1=O	1.5%	3%	?	22	3	1.9	2%
28	COc1ccc2c(c1)[N+](C)(C)C(C)(C)C=C2C	-1.8%	5%	-43%[inhibitor]	11	·	-3.0	-13%
29	COc1ccc(NC(=O)CN(C)C(=O)CNC(=O)Cc2cccc3ccccc23)cc1	0.4%	8%	-8%[15.4 µM]	5	-2	·	13%
30	CCc1ccccc1NC(=O)c1ccc(NCCc2ccccc2)c([N+](=O)[O-])c1	1.4%	-3%	-35%	-3	6	-4.7	-30%
31	Cc1ccc(S(=O)(=O)N2CCC(C(=O)N3CCCCCCC3)CC2)cc1	·	-2%	-13%[15.4 µM]	·	-5	·	·
32	O=C(N=C1c2ccccc2CN1c1ccc(F)c(F)c1)c1cccnc1	·	-4%	6%[15.4 µM]	9	17	-3.5	-9%
33	Cc1c(-c2ccccc2)[n+](=O)c(-c2ccco2)c(C)n1[O-]	28µM*	14%	?	8	39	3.1	4%
34	O=S(=O)(Cc1ccccc1)C(c1ccccc1)S(=O)(=O)Cc1ccccc1	-1.2%	·	1%	·	5	·	·
35	O=C(NCC(=O)N(Cc1ccco1)C(C(=O)NC1CCCC1)c1cccnc1)c1cccs1 (stereo not given)	-2.1%	1%	-7%	24	2	-0.8	25%
36	Cc1ccc(NC(=O)Nc2cccc(C)n2)c(C)c1	-2.6%	16%	1%	-2	1	-2.6	7%

Following part:
no.	SMILES	ClpP mod	gsp antag	gsp ag	TRPV1 PAM	CtBP-E1A inh	Menin MLL FP FL	Sfp PPTase inh
37	O=[N+]([O-])c1cccc(/C=N/Nc2nnc(-c3ccccc3)c(-c3ccccc3)n2)c1	-8.0%	17%	?	5	-2	1.1	9%
38	COc1ccc(-c2noc(CNC(=O)CCCN3C(=O)[C@H]4CC=CC[C@H]4C3=O)n2)cc1	-1.0%	11%	?	-8	-8	2.4	13%
39	COc1ccc(CNC(=O)C(C)NC(=O)c2cc3ccccc3o2)cc1 (stereo not given)	-16%	5%	-37%[inhibitor]	-3	-1	0.6	7%
40	O=C1c2ccccc2C(=O)N1C/C=C/c1ccccc1	0.7%	-5%	1%	12	5	1.9	20%
41	Cc1cc(C)c(C)c(N=Nc2nc3ccccc3n2C)c1C	·	-24%	-6%[15.4 µM]	-16	-5	4.6	56µM*
42	O=C(NC1CC1)C1=C[C@H](C2CC2)C[C@H](OCCCCO)O1	-0.6%	8%	·	9	1	-3.3	-9%
43	CC(=O)c1cc(NC(=O)c2cccc(C(F)(F)F)c2)c(=O)oc1C	·	-3%	11%[15.4 µM]	-10	·	-3.5	14µM*
44	Cc1noc(NS(=O)(=O)c2ccc(NC(=O)c3cnc4scc(C)n4c3=O)cc2)c1C	-11%	6%	26%	-1	-27	-0.1	7%
45	Cc1ccc(S(=O)(=O)N(C)C)cc1NC(=O)COC(=O)CCC(=O)c1cccs1	·	11%	-4%[15.4 µM]	-32	-13	1.2	20%
46	CCOc1cccc(C(=O)Nc2nc(-c3ccc(S(=O)(=O)N4CCOCC4)cc3)cs2)c1	?	?	25%	14	-2	2.8	-10%
47	Fc1ccc(OCc2nn3c(Cn4nnc5ccccc54)nnc3s2)cc1	-2.2%	-13%	12%	-3	-8	1.8	16µM*
48	O=C(CC(Nc1ccccc1Cl)C(=O)OCC(=O)c1cccs1)c1ccccc1 (stereo not given)	-0.7%	0%	-35%[inhibitor]	15	8	-0.4	45µM*

Next section
no.	SMILES	ClpP mod	gsp antag	gsp ag	TRPV1 PAM	CtBP-E1A inh	Menin MLL FP FL	Sfp PPTase inh
49	CC(=O)NC1Sc2ccccc2N=C1c1ccccc1 (stereo not given)	-4.6%	6%	23%	-12	10	-0.5	16µM*
50	Cn1c(N)c(C(=O)COC(=O)CCCOc2ccc(Cl)cc2Cl)c(=O)n(C)c1=O	·	8%	28%	4	0	0.6	4%
51	CCOC(=O)N1CCN(C(=O)c2ccc(S(=O)(=O)Nc3ccccc3)cc2)CC1	-1.7%	-3%	5%	·	2	·	·
52	CC(NC(=S)Nc1ccc(F)cc1)C(c1cccs1)N1CCOCC1 (stereo not given)	-2.1%	7%	14%	-13	-20	0.1	-3%
53	Cc1ccc(S(=O)(=O)NCC(=O)OCC(=O)NCc2ccc3c(c2)OCO3)cc1	·	-1%	-24%[15.4 µM]	19	1	·	·
54	CC(C)c1ccc(/C=C2\C(=N)N3N=C(CC(=O)N4CCCCC4)SC3=NC2=O)cc1	1.6%	16%	6%	1	-14	·	6%
55	OCC[C@H]1C[C@@H](O)[C@H](O)[C@]2(OCCc3ccccc32)O1	-0.3%	-4%	-71%[inhibitor]	-5	-5	·	·
56	CC(=O)Nc1ccc(Nc2nc3ccccc3n3cnnc23)cc1	?	2%	24%	?	0	-5.3	9%
57	CN(Cc1ccccc1NCC(=O)Nc1ccccc1C#N)C1CCCCC1	·	7%	?	-16	-1	-0.8	-7%
58	CCCSc1nc(C)c(CC(=O)OCC)c(=O)[nH]1	-2.4%	10%	0%	-9	-6	0.0	-6%
59	Cc1cccc(NC(=S)NCc2ccccn2)c1	-0.3%	-7%	?	5	-4	2.2	-1%
60	Cc1cc(C)nc(SCCC(=O)Nc2ccccc2C)n1	-1.2%	8%	?	-18	2	0.6	-4%
61	O=C1CSC(c2ccncc2)N1Cc1ccccc1 (stereo not given)	·	-2%	-69%[inhibitor]	7	5	2.8	23%
62	CCc1ccc2oc(-c3ccc(N)cc3)nc2c1	?	-1%	1%	-1	0	2.5	4%

Source: PubChem (National Center for Advancing Translational Sciences (NCATS))

Rows were taken by chance; about 5.3% have a hit in one of these screens.
